Source: PubChem BioAssay
MLL AF4-AF9 inh – blocks AF4 peptide binding to human AF9 | P42568 | AlphaScreen, biotin-AF4 peptide binding to FLAG-AF9 | inhibition, % at 10 µM | 350,000 compounds, 0.47% hits | AID 651704;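 active means every replicate reaching a set inhibition limit, whatever the replicate mean, cut at about 25% in these data; inconclusive means mean inhibition reaches that limit but some replicates miss it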;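 further: 0% = plate neutral control median and 100% = total signal loss; the record names both 10 and 1 µM as test concentration; the first replicate is given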
Target sequence (P42568 whole entry, looked up): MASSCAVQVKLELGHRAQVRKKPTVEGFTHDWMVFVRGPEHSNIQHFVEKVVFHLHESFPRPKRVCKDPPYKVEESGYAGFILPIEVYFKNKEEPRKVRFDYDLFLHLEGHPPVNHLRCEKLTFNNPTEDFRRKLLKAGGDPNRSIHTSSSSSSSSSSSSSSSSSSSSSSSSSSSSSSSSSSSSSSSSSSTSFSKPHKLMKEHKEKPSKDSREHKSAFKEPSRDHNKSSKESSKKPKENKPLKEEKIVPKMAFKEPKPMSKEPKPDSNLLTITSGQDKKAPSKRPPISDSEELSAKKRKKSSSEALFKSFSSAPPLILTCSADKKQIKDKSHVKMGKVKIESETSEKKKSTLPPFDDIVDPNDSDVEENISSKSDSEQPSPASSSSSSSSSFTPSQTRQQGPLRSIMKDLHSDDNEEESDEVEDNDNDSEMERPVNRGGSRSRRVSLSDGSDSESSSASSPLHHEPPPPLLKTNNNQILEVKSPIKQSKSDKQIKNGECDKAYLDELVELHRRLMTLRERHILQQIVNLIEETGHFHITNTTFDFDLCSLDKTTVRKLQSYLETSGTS
Active calls of the source: *; ? = inconclusive. The list is partial; rates above refer to the full screens.

SMILES	MLL AF4-AF9 inh
C[C@@H]1CCCCO[C@H](CN(C)Cc2ccc3c(c2)OCO3)[C@H](C)CN([C@@H](C)CO)C(=O)c2cc(NC(=O)C3CCCCC3)ccc2O1	0.2
CC(C)CC#Cc1ccc2c(c1)O[C@H](CN(C)S(=O)(=O)c1cccc(F)c1)[C@H](C)CN([C@@H](C)CO)S2(=O)=O	-1.6
O=C(Nc1ccccc1)N[C@H]1CC[C@@H](CCNS(=O)(=O)c2ccccc2F)O[C@@H]1CO	-0.6
C[C@@H]1CN([C@H](C)CO)C(=O)c2cc(NS(=O)(=O)c3ccccc3)ccc2O[C@H]1CN(C)C	-3.3
COCCCNC(=O)C[C@@H]1C[C@@]2(C(=O)OC)CCCCC=C2N(Cc2ccccc2)C1=O	-17
C[C@@H]1CN([C@H](C)CO)C(=O)c2cccc(NC(=O)C3CCOCC3)c2O[C@@H]1CN(C)Cc1ccc(C(=O)O)cc1	0.8
CC=Cc1ccc2n(c1=O)C[C@H]1[C@H](CO)[C@@H](C(=O)NCCc3cn(C)cn3)[C@@H]2N1C(=O)CC1CC1 (mixture of isomers)	-5.5
Cc1ccc(S(=O)(=O)N(C)C[C@@H]2Oc3ccc(NC(=O)NC(C)C)cc3CC(=O)N([C@H](C)CO)C[C@H]2C)cc1	0.5
Cc1ccc(S(=O)(=O)N[C@@H]2CC[C@@H](CC(=O)NCCCN(C)C)O[C@@H]2CO)cc1	-10
O=C(CC1CC1)N1[C@H](CO)[C@@H](c2ccccc2)C12CN(Cc1cc(F)ccc1F)C2	-3.3
O=C(NCCc1ccc(Cl)cc1)c1ccc2c(=O)[nH]c3c(C(=O)NCC4CCCO4)sc(=S)n3c2c1 (stereo not given)	0.0
Cc1ccc(S(=O)(=O)N(C)C[C@H]2OCCCC[C@H](C)Oc3ccc(NC(=O)Nc4ccccc4)cc3C(=O)N([C@H](C)CO)C[C@@H]2C)cc1	-0.6

Filtered by structure: the entries above with nitrogen in an aromatic ring (2)
SMILES	MLL AF4-AF9 inh
CC=Cc1ccc2n(c1=O)C[C@H]1[C@H](CO)[C@@H](C(=O)NCCc3cn(C)cn3)[C@@H]2N1C(=O)CC1CC1 (mixture of isomers)	-5.5
O=C(NCCc1ccc(Cl)cc1)c1ccc2c(=O)[nH]c3c(C(=O)NCC4CCCO4)sc(=S)n3c2c1 (stereo not given)	0.0

Later entries
SMILES	MLL AF4-AF9 inh
Cc1ccc(S(=O)(=O)Nc2ccc3c(c2)C(=O)N([C@H](C)CO)C[C@H](C)[C@H](CN(C)S(=O)(=O)c2cn(C)cn2)O3)cc1	0.3
CC(C)NC(=O)N(C)C[C@H]1Oc2ncc(-c3ccccc3F)cc2C(=O)N([C@@H](C)CO)C[C@@H]1C	-3.4
Fc1cccc(Cc2c(-c3cccc(Cl)c3)nc3ccc(Br)cn23)c1	1.2
O=C(Cc1ccncc1)N[C@H]1CC[C@H](CCn2cc(-c3ccccc3F)nn2)O[C@H]1CO	-0.9
Cc1ccc(S(=O)(=O)N2CC[C@@H]3[C@H]2c2cc(C4=CCCCC4)ccc2N(C)[C@H]3CO)cc1	1.5
O=C(Nc1ccccc1)N[C@H]1CC[C@H](CCn2cc(C3(O)CCCC3)nn2)O[C@@H]1CO	0.7
C[C@H](CO)N1C[C@H](C)[C@@H](CN(C)CC2CCCCC2)Oc2c(NC(=O)Nc3cccc4ccccc34)cccc2C1=O	14
C[C@@H]1CN([C@@H](C)CO)C(=O)c2cccc(NC(=O)Nc3ccc(F)cc3)c2O[C@H]1CN(C)C(=O)Nc1ccc(C(F)(F)F)cc1	-8.4
O=C(C[C@@H]1CC[C@H](NC(=O)C2CCC2)[C@H](CO)O1)NCCCN1CCOCC1	0.1
CCS(=O)(=O)Nc1ccc2c(c1)C(=O)N(C)C[C@@H](OC)[C@@H](C)CN[C@H](C)CO2	-0.9
CCCN1[C@@H]2c3ccc(/C=C/c4ccccc4)c(=O)n3C[C@H]1[C@H](CO)[C@H]2C(=O)NCC1CC1	-6.7
Cc1noc(C)c1NC(=O)N[C@H]1C=C[C@H](CC(=O)NCCCN(C)C)O[C@@H]1CO	0.4

3 compounds out of the list above, ordered by the value under MLL AF4-AF9 inh, falling:
SMILES	MLL AF4-AF9 inh
C[C@@H]1CCCCO[C@H](CN(C)Cc2ccc3c(c2)OCO3)[C@H](C)CN([C@@H](C)CO)C(=O)c2cc(NC(=O)C3CCCCC3)ccc2O1	0.2
CC(C)NC(=O)N(C)C[C@H]1Oc2ncc(-c3ccccc3F)cc2C(=O)N([C@@H](C)CO)C[C@@H]1C	-3.4
CCCN1[C@@H]2c3ccc(/C=C/c4ccccc4)c(=O)n3C[C@H]1[C@H](CO)[C@H]2C(=O)NCC1CC1	-6.7

(further entries)
SMILES	MLL AF4-AF9 inh
C[C@@H]1CN([C@H](C)CO)C(=O)c2cc(NC(=O)Nc3ccccc3)ccc2O[C@H]1CN(C)C(=O)Nc1ccc(C(F)(F)F)cc1	-2.5
Cc1noc(C)c1NC(=O)Nc1ccc2c(c1)C(=O)N([C@@H](C)CO)C[C@@H](C)[C@@H](CN(C)C)OCCCC[C@H](C)O2	4.7
COc1ccc(CN(C)C[C@@H]2OCCCC[C@@H](C)Oc3ccc(NC(=O)CCCCCC(=O)Nc4ccccc4N)cc3C(=O)N([C@H](C)CO)C[C@@H]2C)cc1	1.9
COc1ccccc1CNC(=O)C[C@@H]1C[C@H]2c3cc(NC(=O)NC4CCCC4)ccc3O[C@H]2[C@H](CO)O1	-0.9
CN(C)C(=O)[C@H]1[C@H](CO)[C@H]2Cn3c(ccc(-c4cncnc4)c3=O)[C@H]2N1Cc1cc(F)ccc1F	-5.3
CC(=O)N1CC[C@@H]2[C@@H](CO)Nc3ccc(C#Cc4cccnc4)cc3[C@@H]21	2.8
O=C(O)C[C@H]1C[C@@H]2c3cc(NC(=O)NC4CCCC4)ccc3O[C@@H]2[C@@H](CO)O1	-4.7
C[C@@H]1CN([C@@H](C)CO)C(=O)c2cccc(NC(=O)Nc3ccccc3)c2O[C@H]1CN(C)Cc1ccc(C(=O)Nc2ccccc2N)cc1	-1.7
O=C(CCN1CCCCC1)NCC[C@H]1CC[C@@H](NC(=O)C2CCCCC2)[C@@H](CO)O1	-2.6
COc1ccc2c3c(n(C)c2c1)[C@@H](CO)N(C(=O)Nc1cccc(F)c1)CC31CN(Cc2nccs2)C1	11
C[C@@H]1CCCCO[C@H](CN(C)S(=O)(=O)c2cn(C)cn2)[C@@H](C)CN([C@H](C)CO)C(=O)c2cc(NC(=O)Nc3ccc4c(c3)OCO4)ccc2O1	-0.6
C/C=C/c1cnc2c(c1)C(=O)N([C@H](C)CO)C[C@H](C)[C@@H](CN(C)Cc1ccccc1)O2	-1.1
CCCNC(=O)N(C)C[C@H]1Oc2ncc(/C=C/c3ccccc3)cc2C(=O)N([C@@H](C)CO)C[C@@H]1C	-11
CC1=C(C(=O)N(C(C)C)C(C)C)CC(CC(=O)NCc2ccco2)C(=O)N1Cc1ccc(F)cc1 (stereo not given)	-1.6
C[C@H]1CN([C@@H](C)CO)C(=O)c2cc(NC(=O)NC3CCCCC3)ccc2O[C@@H]1CN(C)S(=O)(=O)c1ccc(Cl)cc1	-0.5
C[C@H](CO)N1C[C@H](C)[C@H](CN(C)C(=O)Nc2ccc(F)cc2)Oc2cc(/C=C/c3ccccc3)ccc2S1(=O)=O	0.7
C[C@@H]1CN([C@H](C)CO)S(=O)(=O)c2ccc(-c3cccc(C#N)c3)cc2O[C@@H]1CN(C)C(=O)c1cccnc1	0.4
O=C(NCc1cccc(F)c1)[C@H]1[C@H](CO)[C@H]2Cn3c(cccc3=O)[C@@H]1N2	?
Cc1ccc(S(=O)(=O)N[C@@H]2C=C[C@@H](CC(=O)N3CCC(Cc4ccccc4)CC3)O[C@H]2CO)cc1	2.3
Cc1noc(C)c1S(=O)(=O)Nc1ccc2c(c1)CC(=O)N([C@@H](C)CO)C[C@@H](C)[C@@H](CN(C)C(=O)Nc1cccc3ccccc13)O2	-0.6
CC=Cc1ccc2n(c1=O)C[C@@H]1[C@@H](CO)[C@H](C(=O)NCC3CC3)[C@H]2N1Cc1ccccc1OC (mixture of isomers)	0.3
COc1cccc(-c2ccc3n(c2=O)C[C@H]2[C@H](CO)[C@@H](C(=O)N(C)C)N(C(=O)C4CC4)[C@@H]32)c1	-0.4
CC1(C(=O)NS(=O)(=O)c2cccc(Cl)c2)CCN1C(=O)C1(c2ccccc2)CC1 (stereo not given)	-3.2
Cc1cccc(NC(=O)Nc2ccc3c(c2)C(=O)N(C)[C@@H]2CC[C@@H](CC(=O)O)O[C@@H]2CO3)c1	1.7
CCN(C[C@H]1N[C@@H](CO)[C@@H]1c1ccc(-c2ccc(F)cc2)cc1)C(=O)COC	0.9
NC(=O)c1ccc(NC(=O)COC(=O)c2ccc(Br)c(S(=O)(=O)N3CCOCC3)c2)cc1	-19
C[C@@H]1CN([C@H](C)CO)C(=O)c2cc(/C=C/c3ccccc3)cnc2O[C@@H]1CN(C)S(C)(=O)=O	-1.0
C[C@@H]1CN([C@@H](C)CO)C(=O)Cc2cc(NS(=O)(=O)c3cn(C)cn3)ccc2O[C@H]1CN(C)S(=O)(=O)c1cccs1	-4.2
C[C@@H]1CN([C@@H](C)CO)C(=O)c2cc(NC(=O)Nc3ccccc3)ccc2O[C@@H]1CN(C)C(=O)Nc1ccccc1	1.9
Cc1noc(C)c1S(=O)(=O)Nc1cccc2c1O[C@H](CN(C)C(=O)Nc1ccccc1)[C@H](C)CN([C@@H](C)CO)C2=O	-0.6
CCS(=O)(=O)N1CC(=O)N2[C@@H](CO)[C@H](c3ccc(C#CC4CC4)cc3)[C@@H]2C1	-3.5
C[C@@H]1CN([C@H](C)CO)C(=O)Cc2cc(NC(=O)Nc3ccc4c(c3)OCO4)ccc2O[C@H]1CN(C)S(=O)(=O)c1ccccc1	5.0
CO[C@@H]1CC[C@H]2CCOc3ccc(C#N)cc3C(=O)N(C)C[C@@H](OC)[C@H](C)C(=O)N(C)C[C@@H]1O2	-1.5
COc1ccc(S(=O)(=O)N2CCC(C(=O)NCC(=O)Nc3c(C)cccc3C)CC2)cc1OC	-2.7
C[C@@H]1CN([C@@H](C)CO)C(=O)Cc2cc(NC(=O)NC3CCCCC3)ccc2O[C@H]1CN(C)C(=O)Nc1cccc2ccccc12	0.2
O=C(O)C[C@@H]1C[C@H]2c3cc(NC(=O)NC4CCCCC4)ccc3O[C@H]2[C@@H](CO)O1	-1.7

In the list so far, 4 contain a Cl atom.
SMILES	MLL AF4-AF9 inh
O=C(NCCc1ccc(Cl)cc1)c1ccc2c(=O)[nH]c3c(C(=O)NCC4CCCO4)sc(=S)n3c2c1 (stereo not given)	0.0
Fc1cccc(Cc2c(-c3cccc(Cl)c3)nc3ccc(Br)cn23)c1	1.2
C[C@H]1CN([C@@H](C)CO)C(=O)c2cc(NC(=O)NC3CCCCC3)ccc2O[C@@H]1CN(C)S(=O)(=O)c1ccc(Cl)cc1	-0.5
CC1(C(=O)NS(=O)(=O)c2cccc(Cl)c2)CCN1C(=O)C1(c2ccccc2)CC1 (stereo not given)	-3.2

Next structures:
SMILES	MLL AF4-AF9 inh
C[C@H]1CN([C@@H](C)CO)C(=O)c2c(c3ccccc3n2C)-c2ccccc2CO[C@@H]1CN(C)C(=O)Nc1cccc(C(F)(F)F)c1	11
CC(=O)NCCNc1nc2cc(-c3ccc4c(ccn4C)c3)sc2c(=O)n1C	-6.1
O=C(CCN1CCCCC1)N[C@H]1CC[C@H](CCNS(=O)(=O)c2ccccc2)O[C@H]1CO	0.1
CO[C@@H]1CN(C)C(=O)c2ccc(NC(=O)C3CCCC3)cc2OC[C@@H](C)N(Cc2nccs2)C[C@H]1C	-1.0
Cc1cc2c(cc1C)NC(=O)C(C)CN2 (stereo not given)	3.0
O=C(C[C@H]1C[C@H]2c3cc(NC(=O)c4ccc5c(c4)OCO5)ccc3O[C@H]2[C@H](CO)O1)NCc1ccc(Cl)cc1	0.6
COc1ccc(-c2nn(-c3ccccc3)cc2C(=O)N2CCN(S(=O)(=O)c3ccccc3[N+](=O)[O-])CC2)cc1	2.9
N#C[C@H]1[C@H](c2ccc(-c3cncnc3)cc2)[C@@H](CO)N1C(=O)C1CCC1	-1.2
CCCC#Cc1cnc2c(c1)C(=O)N([C@H](C)CO)C[C@H](C)[C@@H](CN(C)C(=O)NCCC)O2	-2.0
COCC(=O)N1CC2(C1)CN(Cc1cc(F)ccc1F)[C@H](CO)c1c2c2ccc(OC)cc2n1C	1.6
O=C(C1CC1)N1C[C@@H]2[C@H](c3ccccc31)[C@H](CO)N2Cc1ccccc1Cl	-8.1
COC(=O)[C@]12C[C@H](CC(=O)NCc3cccc4ccccc34)C(=O)N(Cc3ccccc3)C1=C[C@H](C1CCCC1)O[C@@H]2C	2.7
CC(=O)Nc1cc(-c2cccc(C(=O)NCCN(C)C)c2)cn2c(-c3ccccc3)cnc12	-7.7
COc1ccccc1-c1ccc([C@H]2[C@H](CO)N(C(=O)C3CC3)C23CN(C(C)=O)C3)cc1	2.2
O=C(C[C@@H]1C=C[C@H](NC(=O)CC2CC2)[C@@H](CO)O1)NCC(F)(F)F	-0.5
Cc1cscc1-c1cc2nc(NCCCN(C)C)n(C)c(=O)c2s1	3.8
C[C@H]1CN([C@@H](C)CO)C(=O)c2cc(NC(=O)C3CC3)ccc2O[C@H]1CN(C)CC1CCCCC1	-5.7
C[C@@H]1CCCCO[C@H](CN(C)Cc2ccncc2)[C@@H](C)CN([C@@H](C)CO)C(=O)c2cc(NC(=O)Nc3cccc4ccccc34)ccc2O1	3.6
C[C@@H]1CN([C@H](C)CO)C(=O)c2cccc(NC(=O)c3nc4ccccc4s3)c2O[C@H]1CN(C)Cc1ccc(C(=O)O)cc1	-2.8
COc1ccc2c3c(n(C)c2c1)[C@H](CO)N(C(=O)CN1CCOCC1)CC31CCN(C(=O)Nc2cccc(F)c2)CC1	0.0
CN1C(=O)c2cc(NC(=O)NC3CCCC3)ccc2OC[C@@H]2O[C@@H](CC(=O)NC3CCC3)CC[C@H]21	2.8
CN(C)C(=O)C[C@H]1C[C@@H]2c3cc(NS(C)(=O)=O)ccc3O[C@@H]2[C@H](CO)O1	-1.1
C[C@H](CO)N1C[C@H](C)[C@@H](CN(C)C(=O)Nc2ccc(N3CCCCC3)cc2)OCc2cnnn2CCCC1=O	16
CN1C(=O)c2cc(NS(C)(=O)=O)ccc2OC[C@@H]2O[C@H](CC(=O)N3CCOCC3)CC[C@@H]21	0.1
